# Assay outcomes: PubChem, National Center for Advancing Translational Sciences (NCATS)
# D2 potentiator = Beta-Arrestin HTS for Positive Allosteric Modulators of the Human D2 Dopamine Receptor: Potentiators. D(2) dopamine receptor (Homo sapiens), P14416. potentiation, % (no concentration beside the values). DiscoveRx D2 beta-arrestin cells, luminescence, 90 min; 100% = 57 uM dopamine signal. 360,000 tested, 0.23% active; active = potentiation of 50% or more; inconclusive = 30% to 50%; inactive = 30% or less;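 also: compound concentration not given in the record; tested on top of an EC20 dose of dopamine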
#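 PathHunter D2 cells, attached overnight at 37 deg C, received compound in DMSO plus dopamine at EC20 (50 nM final) for 90 min at 37 deg C. Beta-arrestin recruitment was read as luminescence after 1 h with detection reagent at ambient temperature.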
# D2 ag = Beta-Arrestin HTS for Positive Allosteric Modulators of the Human D2 Dopamine Receptor: Agonists. D(2) dopamine receptor (Homo sapiens), P14416. DiscoveRx PathHunter D2 beta-arrestin, luminescence, 90 min; 100% = 57 uM dopamine signal. activation, % (test concentration not listed). 360,000 tested, 0.084% active. AID 624465, 2012; in the data active = activation above about 40%; inconclusive = about 15% to 40%; inactive = below about 15%; also: compound concentration not given in the record; the text of the record calls up to 30% inactive
#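 Agonist mode: compounds alone added to overnight-plated D2 PathHunter cells for 90 min at 37 C, with 57 uM final dopamine (EC100) defining full response. Beta-arrestin recruitment detected by chemiluminescent reagent, read after 1 h at ambient temperature.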
# Sfp PPTase inh = qHTS Assay for Inhibitors of Bacillus subtilis Sfp phosphopantetheinyl transferase (PPTase); 4'-phosphopantetheinyl transferase ffp (Bacillus subtilis), Q9F4F7; Biochemical Sfp PPTase activity, qHTS; Potency, µM, for inactives: max response, negative = inhibition, actives largely listed as inhibitors; 310,000 tested, 3.5% active; AID 1490, 2009; active = well fitted inhibition curve with a large enough effect; inconclusive = small, poorly fitted or top-dose-only effect, or another doubt; inactive = no such curve, though single readings can be large or run the other way;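 also: the enzyme is Sfp with the accession as filed and its product quenches rhodamine fluorescence; potency is read from the fitted curve at half-maximal effect; 0% = enzyme reaction without inhibitor and -100% = no enzyme wells; top concentration of the series not given in the record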
#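 Compounds were incubated with enzyme (final 15 nM) for 15 min at room temperature before substrate addition started the reaction. Fluorescence at 525 nm excitation, 598 nm emission was recorded immediately and after 30 minutes.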
# CtBP-E1A inh = qHTS Assay for Inhibitors of the CtBP/E1A Interaction; CtBP / adenovirus E1A interaction (AlphaScreen); AlphaScreen GST-E1A/His-CtBP binding, 1536-well; stronger effect = lower value; control for the full effect not named in the record; activity change, % (test concentration not listed); 340,000 tested, 0.49% active; in the data active means activity change below about -65%; inconclusive means about -30% to -65%; inactive means above about -30%; also: % is scaled to controls: 0 for no effect and ±100 for the full control effect; compound concentration not given in the record
#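 AlphaScreen with 125 nM GST-E1A and 125 nM His-CtBP (5X stocks) in Tris pH 8.0, 300 mM NaCl, BSA, Tween 20, TCEP. Compounds preincubated 2 h at 37 deg C, then glutathione donor/nickel acceptor beads added for 1 h at 37 deg C in dark.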
# PINK1 modulator = A Quantitative High throughput Screen to Identify Chemical Modulators of PINK1 Expression; PINK1 immunofluorescence, high-content cytometry, 24 h; Potency, µM (doses to about 76.6 µM), inactives show top-dose activation (PINK1 increase), usual class: activators; 410,000 tested, 0.2% active; active = well fitted activation curve with a large enough effect; inconclusive = small, poorly fitted or top-dose-only effect; inactive = flat fitted curve, though single readings scatter; cell line not stated here;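 also: potency is read from the fitted curve at half-maximal effect; % of control where 0% means no effect; nearly all actives have a fitted effect of over 65% in size; a mitochondrial uncoupler was the plate control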
#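 Fluorescence from anti-PINK1 antibody, together with nuclear and cell stains, was scanned on a laser-scanning cytometer. Before staining, stable-line cells were incubated 24 hours with compounds at 5 concentrations; primary antibody 12 h at 10 degrees C.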
# TRPV1 PAM = HTS Assay for Compounds that Act as Potentiators of the Vanilloid Receptor 1. Transient receptor potential cation channel subfamily V member 1 (Homo sapiens), Q8NER1. TRPV1-expressing cells, Fluo-8 calcium influx, capsaicin EC20 potentiation; host cell line not named in the record; control for the full effect not named in the record. potentiation, % at 8.33 µM. 320,000 tested, 0.02% active. AID 540277, 2011; active means potentiation above 80%; inconclusive means 30% to 80%; inactive means below 30%; also: 0% is about no effect
# Target sequence (Q8NER1 whole entry, looked up): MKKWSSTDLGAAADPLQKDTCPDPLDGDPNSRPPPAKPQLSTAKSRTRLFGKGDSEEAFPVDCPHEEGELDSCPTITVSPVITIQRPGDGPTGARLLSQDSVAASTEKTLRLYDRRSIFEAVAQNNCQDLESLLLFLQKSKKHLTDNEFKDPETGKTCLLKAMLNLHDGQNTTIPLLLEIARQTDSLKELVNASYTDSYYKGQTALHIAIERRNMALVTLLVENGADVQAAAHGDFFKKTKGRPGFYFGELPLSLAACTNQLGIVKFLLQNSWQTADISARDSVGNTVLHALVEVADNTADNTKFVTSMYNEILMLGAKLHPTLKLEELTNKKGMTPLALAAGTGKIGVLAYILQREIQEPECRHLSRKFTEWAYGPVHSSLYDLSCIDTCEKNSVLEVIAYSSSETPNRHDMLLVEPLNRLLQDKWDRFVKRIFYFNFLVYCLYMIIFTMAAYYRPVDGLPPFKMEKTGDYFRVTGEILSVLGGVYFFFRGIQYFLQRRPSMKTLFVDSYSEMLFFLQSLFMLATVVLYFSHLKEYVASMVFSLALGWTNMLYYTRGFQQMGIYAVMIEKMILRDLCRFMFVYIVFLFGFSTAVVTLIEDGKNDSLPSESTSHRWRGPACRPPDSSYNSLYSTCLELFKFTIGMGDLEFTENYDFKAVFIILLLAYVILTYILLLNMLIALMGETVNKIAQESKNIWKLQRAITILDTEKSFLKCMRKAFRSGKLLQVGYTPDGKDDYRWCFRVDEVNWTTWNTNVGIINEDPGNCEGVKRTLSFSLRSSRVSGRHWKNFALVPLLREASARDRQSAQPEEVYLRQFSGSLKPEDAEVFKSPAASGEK
#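 TRPV1-expressing cells were cultured overnight at 35.5C and loaded with Fluo-8 calcium dye for 40 to 90 min at room temperature. After a 10 s baseline, compound was added and calcium influx was read kinetically for 3 min (ex 480/em 520 nm).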
# Six1-Eya2 inh = qHTS Assay for Inhibitors of the Six1/Eya2 Interaction; AlphaScreen GST-Six1/His-Eya2 binding, biochemical; stronger effect = lower value; control for the full effect not named in the record; activity change, % (concentration not given with the values); 360,000 tested, 0.56% active; in the data active = activity change below about -65%; inconclusive = about -30% to -65%; inactive = above about -30%; also: % is scaled to controls: 0 for no effect and ±100 for the full control effect
#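 Compounds are tested against tagged Six1 and Eya2 proteins bridged by glutathione donor and nickel acceptor beads; after a one-hour incubation at 37 °C without light, AlphaScreen emission is recorded.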
# Active calls of the source: *; ? = inconclusive; . = no result given; [ ] = dose if it differs, or a comment. This is a random part of the collection (roughly 3.7% active in at least one column).
SMILES,D2 potentiator,D2 ag,Sfp PPTase inh,CtBP-E1A inh,PINK1 modulator,TRPV1 PAM,Six1-Eya2 inh
O=C(CCN1CCN(c2ccccc2)CC1)Nc1ccc(Cl)cc1,-13,2.9,12%,-2,-1.6%,14,-1
O=C1CSc2ccc(C(=O)N3CCCCC3)cc2N1,-4,-0.8,.,7,0.8%,.,5
COC(=O)[C@]1(Cc2ccccc2)N[C@H](CN(C)C(=O)Nc2ccc(OC)cc2)[C@@H]2C(=O)N(Cc3ccccc3)C(=O)[C@@H]21,-7,-3.0,.,-8,1.8%,.,-6
OC(COCCOc1ccc(Br)cc1)CN1CCCCC1 (stereo not given),2,-0.7,-1%,11,-0.4%,4,1
O=[N+]([O-])c1ccc(-c2cn3ccccc3n2)cc1,2,0.1,.,.,6.1%,.,8
Cc1nn(CC(=O)N(C)C2CCC(C)CC2)c(C)c1S(=O)(=O)N(C)C (stereo not given),-2,3.7,.,3,0.5%,21,5
Cc1ccc2c(c1)C(O)(CC(=O)/C=C/C=C/c1ccccc1)C(=O)N2 (stereo not given),-5,-0.7,?,20,4.7%,-6,9
O=C(COc1cccnc1[N+](=O)[O-])NCCc1ccc(F)cc1,1,-0.2,0%,12,-0.8%,-2,0
CC(C)CC(COCc1ccc(C(F)(F)F)cc1)N1CCN(C(=O)c2ccc(C(F)(F)F)cc2)CCC1=O (stereo not given),-2,-2.7,12%,5,0.8%,-3,7
CCc1ccc(OC(=O)c2ccn(CC)n2)cc1,5,-0.5,-24%,-1,-0.2%,?,11
Cc1cccc(-n2c(SCC(=O)NC3CCCC3)nnc2-c2ccoc2C)c1,-1,0.2,-11%,-10,-2.0%,-7,0
COc1ccc(N(CC(=O)N2CCN(c3ccccc3)CC2)S(=O)(=O)c2ccccc2)cc1,-11,1.2,.,-2,2.8%,.,-14
O=C(N/N=C/C(Cl)=C/c1ccc([N+](=O)[O-])cc1)C(=O)Nc1ccccc1C(=O)O,7,9.0,35µM*,-92*,2.0%,.,-25
O=C(CCOc1ccccc1)Nc1ccccc1F,1,-4.3,12%,.,1.1%,21,0
CC(=O)Nc1ccc(S(=O)(=O)N(C)CC(=O)OCCOc2cccc(C)c2)cc1,0,-1.5,7%,6,2.6%,-9,-2
Cc1ccc2nc(NC(=O)CCn3cccc3)sc2c1,-5,-4.3,5%,.,6.0%,?,-8
Nn1c(SCC(=O)Nc2ccc(S(N)(=O)=O)cc2)nnc1C(F)(F)F,-3,-0.6,20%,4,-1.2%,4,31
O=C(Nc1ccccn1)C1CCN(S(=O)(=O)c2cccs2)CC1,-8,0.5,5%,5,0.3%[38.3 µM],-14,2
COc1ccccc1C(=O)Nc1cccc(C(=O)c2ccccc2)c1,-3,-2.0,16%,.,2.3%,5,3
Cc1nn(Cc2ccccc2Cl)c(C)c1C(=O)NCC(c1cccs1)N1CCOCC1 (stereo not given),10,2.9,.,9,1.3%,1,11
Cc1cc(N2CCOCC2)nc2ccc(NC(=O)CCC(=O)N3CCN(c4ccccc4)CC3)cc12,-4,0.5,10%,-2,2.7%,-10,-7
COc1ccc(N2CCN(C(=O)CSc3nc4cc(OC)c(OC)cc4cc3C#N)CC2)cc1,?,2.8,63µM*,?,1.6%,6,?
Cc1noc(C)c1C(=O)Nc1ccc(-c2nnc3n2CCCCC3)cc1,-20,-3.4,.,-5,0.7%,-2,0
C[C@H]1CN([C@@H](C)CO)C(=O)c2cc(Br)cnc2O[C@@H]1CN(C)S(=O)(=O)c1ccccc1,-1,-10,.,5,0.7%,.,5
O=C(NCc1ccc(F)cc1)C(=O)NCC1OCCN1S(=O)(=O)c1cc(F)ccc1F (stereo not given),-13,0.0,.,1,-0.1%,.,12
COc1ccc(N2Cc3ccccc3C2=NC(=O)c2cncc(Br)c2)cc1,-11,2.7,11%,.,0.8%,-5,2
CCOc1ccc(NC(=O)CN(C)C(=O)CSCc2cccc(C)c2)cc1OCC,-29,-6.2,.,-4,0.3%,-5,-15
Cc1c(NC(=O)CCC(=O)N2CCOCC2)c(=O)n(-c2ccccc2)n1C,-12,-2.7,17%,5,-0.3%,2,5
CCC(=NCCc1ccccc1)C1=C(O)CCC1=O,2,-3.6,7%,8,0.8%,-11,-2
CC(C)NC(=O)C(=O)NCCCN1CCOCC1,-1,-2.9,11%,1,0.6%,15,5
Cc1ccc(C(=O)/C=C/c2cc(Br)cc(Br)c2O)o1,4,-4.0,?,.,17%,6,-17
N#Cc1ccc(C2=NC(C(F)(F)F)(C(F)(F)F)c3c(n(Cc4ccco4)c(=O)[nH]c3=O)N2)cc1,-21,0.7,11%,-10,.,1,-10
CSCCC(C(=O)Nc1c(C)cccc1C)N1CCN(c2ccc(F)cc2)CC1 (stereo not given),-1,6.0,.,-5,1.7%,.,-11
O=C(NCCCc1ccccc1)c1c(O)nc2sccn2c1=O,-7,-4.7,.,0,2.0%,12,-2
CC(=O)c1ccc(S(=O)(=O)N2CCN(CC#N)CC2)cc1,4,-6.7,7%,3,1.0%,-8,11
COc1ccc(OCCNC(=O)c2ccccc2OCC(=O)N2CCCCC2)cc1,-13,4.1,2%,6,0.3%[38.3 µM],-1,-1
CC(=O)c1coc2ccc(OCCN3CCCCC3)cc12,-22,-0.2,-2%,-9,.,-9,-5
O=C(Oc1ccc(/C=N/NC(=O)c2ccccn2)cc1)c1cccc(Br)c1,1,0.0,6%,1,6.8%,-7,0
Cc1ccc(NC(=O)CCC(=O)N/N=C/c2ccc(O)cc2O)cc1,-36,1.4,13%,?,1.2%,4,?
COc1cc(OC)c(OC)cc1/C=N/n1c(C)nc2ccccc2c1=O,-6,6.6,20%,-4,-0.2%,14,1
O=C(O)CN1C(=O)/C(=C/c2ccc(SCc3ccccc3)o2)SC1=S,5,-19,14µM*,-23,0.2%,?,-18
CSc1nc2ccc(NC(=O)NC(=O)c3c(F)cccc3F)cc2s1,-15,1.4,-2%,-4,4.6%,7,6
COc1ccc(NC(=S)N(CCCN2CCOCC2)C(C)c2cc3cccc(OC)c3o2)cc1 (stereo not given),-15,-0.7,15%,-4,3.2%,?,-14
COc1ccc2c(CC(=O)N3CCc4cc(OC)c(OC)cc4C3)coc2c1,-4,-1.4,1%,-5,-1.8%,-1,-9
CCc1nc(SCC(=O)Nc2ccc(N(C)C)cc2)c2ccccc2n1,-5,0.3,?,-1,5.3%,?,-25

# Eleven of these compounds, reformatted:
canonical_smiles | D2 potentiator | D2 ag | Sfp PPTase inh | CtBP-E1A inh | PINK1 modulator | TRPV1 PAM | Six1-Eya2 inh
Cc1ccc(C(=O)/C=C/c2cc(Br)cc(Br)c2O)o1 | 4 | -4.0 | ? | . | 17% | 6 | -17
N#Cc1ccc(C2=NC(C(F)(F)F)(C(F)(F)F)c3c(n(Cc4ccco4)c(=O)[nH]c3=O)N2)cc1 | -21 | 0.7 | 11% | -10 | . | 1 | -10
CSCCC(C(=O)Nc1c(C)cccc1C)N1CCN(c2ccc(F)cc2)CC1 (stereo not given) | -1 | 6.0 | . | -5 | 1.7% | . | -11
O=C(NCCCc1ccccc1)c1c(O)nc2sccn2c1=O | -7 | -4.7 | . | 0 | 2.0% | 12 | -2
CC(=O)c1ccc(S(=O)(=O)N2CCN(CC#N)CC2)cc1 | 4 | -6.7 | 7% | 3 | 1.0% | -8 | 11
COc1ccc(OCCNC(=O)c2ccccc2OCC(=O)N2CCCCC2)cc1 | -13 | 4.1 | 2% | 6 | 0.3%[38.3 µM] | -1 | -1
CC(=O)c1coc2ccc(OCCN3CCCCC3)cc12 | -22 | -0.2 | -2% | -9 | . | -9 | -5
O=C(Oc1ccc(/C=N/NC(=O)c2ccccn2)cc1)c1cccc(Br)c1 | 1 | 0.0 | 6% | 1 | 6.8% | -7 | 0
Cc1ccc(NC(=O)CCC(=O)N/N=C/c2ccc(O)cc2O)cc1 | -36 | 1.4 | 13% | ? | 1.2% | 4 | ?
COc1cc(OC)c(OC)cc1/C=N/n1c(C)nc2ccccc2c1=O | -6 | 6.6 | 20% | -4 | -0.2% | 14 | 1
O=C(O)CN1C(=O)/C(=C/c2ccc(SCc3ccccc3)o2)SC1=S | 5 | -19 | 14µM* | -23 | 0.2% | ? | -18

# Back to the main list; the two compounds before the break are reprinted first.
SMILES,D2 potentiator,D2 ag,Sfp PPTase inh,CtBP-E1A inh,PINK1 modulator,TRPV1 PAM,Six1-Eya2 inh
COc1ccc2c(CC(=O)N3CCc4cc(OC)c(OC)cc4C3)coc2c1,-4,-1.4,1%,-5,-1.8%,-1,-9
CCc1nc(SCC(=O)Nc2ccc(N(C)C)cc2)c2ccccc2n1,-5,0.3,?,-1,5.3%,?,-25
CCOC(=O)c1c(NC(=O)CSc2nc3c(c(=O)n(C)c(=O)n3C)n2C(C)C)sc(C)c1C,-3,-2.5,16%,5,2.7%[38.3 µM],-26,5
CC(C)CNc1ncnc2c1ncn2[C@H]1CN(Cc2ccncc2)C[C@@H](CO)O1,-2,3.1,.,8,-0.4%,.,1
CCC1CCc2c(sc(NC(=O)c3ccco3)c2C(N)=O)C1 (stereo not given),12,0.3,-6%,0,2.6%,-12,-4
C[C@H](CO)N1C[C@H](C)[C@@H](CN(C)S(=O)(=O)c2ccc(F)cc2)OCc2cn(nn2)CCCC1=O,-1,-7.1,.,-3,1.9%,.,2
C#CCOCCOCCOCCNc1nc(N2CCN(C(=O)CCCCCCCCCCNC(=O)Cn3cc(C[C@@H](C)O)nn3)CC2)nc(N2CCN(C(=O)CCCCCCCCCCNC(=O)[C@H](CCCCN)n3cc(CCCC(=O)O)nn3)CC2)n1,-9,-6.4,.,-10,?,17,?
COc1cccc(CCC(=O)N(C)C2CCCN(Cc3ccccc3F)C2)c1 (stereo not given),-2,-1.1,11%,.,-0.5%,3,4
Nc1nnc(SCc2c(F)cccc2Cl)s1,-6,4.1,16%,-1,0.1%,13,5
O=C1CC[C@H](O)CCN1CCSc1ccc(Br)cc1,-1,-2.8,.,1,-0.1%,-10,1
COc1ccc(CCCC(=O)N/N=C/c2cccc(OC)c2O)cc1C,-18,-0.2,-4%,-21,-0.7%,-12,-18
